CtBP-E1A blk: CtBP/E1A binding inhibition; activity change, % (test concentration not listed); AID 651724; AlphaScreen GST-E1A/His-CtBP binding, 1536-well; active compounds read low; control for the full effect not named in the record; 340,000 compounds, 0.49% hits; in the data active means activity change below about -65%; inconclusive means about -30% to -65%; inactive means above about -30%; note: % is set by controls: 0 for no effect and ±100 for the full control effect
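GST-E1A and His-tagged CtBP (125 nM each as 5X stock) were preincubated with pin-transferred compound for 2 h at 37 °C in the dark, then glutathione donor and nickel acceptor beads were added for 1 h before AlphaScreen reading.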
D2 agonist: activates the human D2 dopamine receptor | AID 624465 | activation, % (no concentration beside the values) | DiscoveRx PathHunter D2 beta-arrestin, luminescence, 90 min; 100% = 57 uM dopamine signal | 360,000 compounds, 0.084% hits | P14416; in the data active = activation above about 40%; inconclusive = about 15% to 40%; inactive = below about 15%; note: compound concentration not given in the record; the text of the record calls up to 30% inactive
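Agonist mode: compounds alone added to overnight-plated D2 PathHunter cells for 90 min at 37 C, with 57 uM final dopamine (EC100) defining full response. Beta-arrestin recruitment detected by chemiluminescent reagent, read after 1 h at ambient temperature.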
D2 potentiator: human D2 receptor positive allosteric modulation; DiscoveRx D2 beta-arrestin cells, luminescence, 90 min; 100% = 57 uM dopamine signal; potentiation, % (test concentration not listed); 360,000 compounds, 0.23% hits; P14416; active = potentiation of 50% or more; inconclusive = 30% to 50%; inactive = 30% or less;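 note: compound concentration not given in the record; tested on top of an EC20 dose of dopamine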
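PathHunter beta-arrestin assay in DiscoveRx D2 cells. Compounds were added with an EC20 of dopamine (50 nM final) for 90 min at 37 deg C. Luminescence was read 1 h after detection reagent, with 57 uM dopamine as the EC100 control.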
TRPV1 potentiator: enhances activation of the human vanilloid receptor TRPV1; TRPV1-expressing cells, Fluo-8 calcium influx, capsaicin EC20 potentiation; host cell line not named in the record; control for the full effect not named in the record; AID 540277; potentiation, % at 8.33 µM; 320,000 compounds, 0.02% hits; active means potentiation above 80%; inconclusive means 30% to 80%; inactive means below 30%; note: 0% is about no effect
Target sequence (Q8NER1 whole entry, looked up): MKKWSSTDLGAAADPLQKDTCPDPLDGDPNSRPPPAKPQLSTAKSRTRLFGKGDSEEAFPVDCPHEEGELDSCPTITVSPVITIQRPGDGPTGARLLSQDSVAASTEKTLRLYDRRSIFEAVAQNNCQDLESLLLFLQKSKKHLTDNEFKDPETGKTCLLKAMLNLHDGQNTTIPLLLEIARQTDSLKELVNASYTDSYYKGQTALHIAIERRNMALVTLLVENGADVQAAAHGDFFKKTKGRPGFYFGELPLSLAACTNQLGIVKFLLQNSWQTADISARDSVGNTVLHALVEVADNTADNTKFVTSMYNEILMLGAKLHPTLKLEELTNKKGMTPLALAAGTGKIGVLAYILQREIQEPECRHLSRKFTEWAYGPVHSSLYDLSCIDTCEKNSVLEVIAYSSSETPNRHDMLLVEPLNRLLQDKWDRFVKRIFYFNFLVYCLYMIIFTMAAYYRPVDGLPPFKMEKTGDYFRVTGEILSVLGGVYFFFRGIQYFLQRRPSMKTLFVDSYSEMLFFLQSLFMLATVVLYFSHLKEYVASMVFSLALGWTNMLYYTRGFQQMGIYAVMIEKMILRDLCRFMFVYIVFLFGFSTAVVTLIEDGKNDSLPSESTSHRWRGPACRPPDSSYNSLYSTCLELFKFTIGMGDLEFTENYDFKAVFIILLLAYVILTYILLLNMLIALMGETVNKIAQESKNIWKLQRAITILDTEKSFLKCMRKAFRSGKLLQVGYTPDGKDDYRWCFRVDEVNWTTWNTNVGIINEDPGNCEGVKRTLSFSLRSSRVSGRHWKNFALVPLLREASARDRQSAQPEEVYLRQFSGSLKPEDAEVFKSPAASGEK
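TRPV1-expressing cells were cultured overnight at 35.5C and loaded with Fluo-8 calcium dye for 40 to 90 min at room temperature. After a 10 s baseline, compound was added and calcium influx was read kinetically for 3 min (ex 480/em 520 nm).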
Six1-Eya2 blk: Six1/Eya2 interaction inhibition. Q15475+O00167. 360,000 compounds, 0.56% hits. AlphaScreen GST-Six1/His-Eya2 binding, biochemical; active compounds read low; control for the full effect not named in the record. AID 651725. activity change, % (test concentration not listed); in the data active = activity change below about -65%; inconclusive = about -30% to -65%; inactive = above about -30%; note: % is set by controls: 0 for no effect and ±100 for the full control effect
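AlphaScreen with GST-Six1 and His-Eya2 (5X mix: 250 nM and 500 nM), glutathione donor and nickel acceptor beads; buffer 50 mM Tris pH 8.0, 300 mM NaCl, 1 mM TCEP; 1 h at 37 C in the dark.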
PINK1 modulator: changes PINK1 expression. PINK1 immunofluorescence, high-content cytometry, 24 h. 410,000 compounds, 0.2% hits. Potency, µM (doses to about 76.6 µM), for inactives: at the highest dose activation (PINK1 increase), actives largely listed as activators. AID 624263; active = well fitted activation curve with a large enough effect; inconclusive = small, poorly fitted or top-dose-only effect; inactive = flat fitted curve, though single readings scatter; cell line not stated here;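 note: potency is the fitted concentration of half-maximal effect; % of control where 0% means no effect; nearly all actives have a fitted effect of over 65% in size; a mitochondrial uncoupler was the plate control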
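PINK1 protein, normally rapidly degraded, was detected by immunofluorescence after 24 hour compound treatment of a stable cell line. Titration data (5 concentrations) came from laser-scanning cytometry, with CCCP-treated wells as controls.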
Sfp inh: Sfp phosphopantetheinyl transferase inhibition. Potency, µM, inactives show max response, negative = inhibition, usual class: inhibitors. 310,000 compounds, 3.5% hits. Biochemical Sfp PPTase activity, qHTS; active = well fitted inhibition curve with a large enough effect; inconclusive = small, poorly fitted or top-dose-only effect, or another doubt; inactive = no such curve, though single readings can be large or run the other way;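 note: the enzyme is Sfp with the accession as filed and its product quenches rhodamine fluorescence; potency is the fitted concentration of half-maximal effect; 0% = enzyme reaction without inhibitor and -100% = no enzyme wells; top concentration of the series not given in the record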
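After 15 min at room temperature with compound, 15 nM Sfp received 5 uM rhodamine-CoA plus 12.5 uM BHQ-2-ybbR (50 mM Hepes pH 7.6, 10 mM MgCl2). Rate came from the fluorescence difference over 30 min, ex 525/em 598 nm.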
Active calls of the source: *; ? = inconclusive; · = no result given; [ ] = another dose, or the depositor's remark.

SMILES | CtBP-E1A blk | D2 agonist | D2 potentiator | TRPV1 potentiator | Six1-Eya2 blk | PINK1 modulator | Sfp inh
COC(=O)c1ccc(S(=O)(=O)N2CCC(C(N)=O)CC2)n1C | -17.3 | 1.0 | -0.1 | -3.4 | -2.6 | -2.1% | 7.0%
CS(=O)(=O)c1nc(S(=O)(=O)c2ccc(Cl)cc2)c(NCc2ccccn2)s1 | 1.2 | -6.3 | -0.4 | 3.9 | ? | -0.7% | 8.5%
O=C(O)/C=C\C(=O)Nc1ccc(N2CCN(c3cccc(Cl)c3)CC2)cc1 | · | 12.4 | -3.1 | 2.9 | -13.0 | -0.4% | -21.8%
COc1cc(NC(=O)Cn2cnc3ccccc3c2=O)c(OC)cc1Cl | 4.8 | 0.9 | -3.2 | 12.7 | -1.9 | 0.4% | 3.0%
Cc1cccc(C(=O)NNC(=O)CSc2nnc(C(C)C)n2C)c1 | 2.7 | -7.2 | -5.2 | -1.6 | 8.0 | 0.7% | -1.0%
Cc1nnc(NC(=O)CN2CCN(Cc3ccccc3Cl)CC2)s1 | -2.0 | -5.3 | -4.6 | 8.4 | -3.8 | 0.7% | -4.0%
O=C(O)c1ccccc1SCCS(=O)(=O)c1ccc(Cl)cc1Cl | · | 1.6 | ? | 13.8 | 0.2 | 0.8% | 8.5%
C=C(CCO)C1=CCN(S(=O)(=O)C(C)(C)C)[C@H]1CCO | 2.3 | -4.0 | · | · | 1.2 | 0.6% | ·
COc1ccccc1OCC(=O)Nc1ccccc1C(=O)NCc1cccnc1 | -6.1 | -1.8 | -1.4 | 4.3 | -6.9 | -1.7% | 12.6%
CCc1nc2c(OCc3ccc(F)c(F)c3)cccn2c1N(C)C(=O)c1cccs1 | 0.0 | -2.4 | -6.4 | · | -10.1 | 0.6% | ·
COc1ccc(C(=O)OCn2nnc3ccccc3c2=O)cc1 | 15.3 | 2.5 | 9.2 | -22.4 | -4.5 | 3.0% | -0.9%
CSc1nc2nc(Cl)c(Cl)nc2[nH]1 | -1.7 | -5.0 | 0.9 | · | -1.7 | 1.8% | ·
CC1CCc2nn(CC(=O)N3CCCCCC3)cc2C1 (stereo not given) | -5.7 | -2.6 | -1.7 | -4.1 | 6.6 | -2.7% | 15.4%
Cc1ccccc1NC(=O)Cn1c(=O)oc2ccccc21 | · | 1.8 | -16.5 | 3.5 | 8.8 | -0.2% | 3.3%
Cc1cccc(Oc2ccc(S(=O)(=O)N3CCCCC3)cc2N)c1 | · | 5.4 | -12.9 | 2.9 | -5.1 | -0.3% | 17.2%
c1ccc(-c2csc3nnc(SCc4ccc5c(c4)OCO5)n23)cc1 | -0.8 | -5.5 | 5.0 | ? | -2.6 | -0.3% | 20.7%
CC(C)C[C@@H](CN1CCCC1CN1C(=S)NC[C@@H]1Cc1ccc(O)cc1)N1C[C@H](Cc2ccccc2)N(CC2CCCCCC2)C1=S (stereo not given in full) | -4.0 | 2.2 | 1.8 | · | -1.8 | 19.1% | ·
CCOc1ccc2nc(NC(=O)C(NS(=O)(=O)c3cccc4nsnc34)C(C)C)sc2c1 (stereo not given) | 1.7 | -3.7 | -2.3 | · | -14.4 | 3.4% | 5.6%
O=C(CSc1ccc(-c2ccco2)nn1)NCc1ccc(Cl)cc1 | -1.2 | -1.2 | -25.5 | 9.3 | -0.4 | 5.6% | -29.3%
COc1cc(-c2ccc(NC(C)=O)c(OC)c2)ccc1NC(C)=O | · | -3.7 | -11.9 | 7.2 | -3.1 | 2.8% | 11.7%
CS(=O)(=O)c1ccc(NC(=O)CCCc2nc3ccccc3c(=O)[nH]2)cc1 | -6.9 | -7.2 | -1.7 | 13.0 | 6.6 | 0.6% | ·
O=C(CCc1ccc(F)c(F)c1)NC1CCCN(Cc2ccc(Cl)cc2)C1 (stereo not given) | 6.8 | -2.8 | -23.9 | 13.0 | -6.8 | 2.9% | 7.4%
Cc1ccc(NC(=S)NC2CCN(Cc3ccccc3)CC2)cc1C | · | -8.7 | ? | 2.2 | -9.9 | -0.5% | 14.8%
CCOC(=O)c1c(C=O)c(C)n(Cc2ccccc2)c1C | 6.4 | -0.3 | -6.5 | 3.4 | -9.7 | -2.4% | 11.0%
N#C/C(=C/c1ccc(N2CCCC2)c([N+](=O)[O-])c1)c1nc2ccccc2[nH]1 | -5.2 | -4.2 | -13.7 | -12.3 | -7.2 | · | -10.4%
O=C(CC(=O)NN=C1CCCCCC1)NCc1cccnc1 | 2.4 | 0.0 | -54.4 | -10.6 | 6.0 | -0.7% | 14.0%
COc1ccc(CN(CC(=O)NC2CCCC2)C(=O)CCC(=O)Nc2cc(C)on2)cc1 | 1.8 | -3.7 | -8.1 | -16.9 | 4.4 | -0.8% | 2.2%
O=C(NCCCO)/C(=C\c1ccco1)NC(=O)c1ccco1 | · | 0.5 | 11.2 | 2.6 | 0.7 | 0.5% | -6.7%
Cc1cccc(NC(=O)CCC(=O)N/N=C/c2cc([N+](=O)[O-])ccc2O)c1 | -89.8* | -4.7 | -28.4 | 26.7 | -78.8* | -1.4% | 12.6%
Cc1nnc(NC(=O)C2CCCO2)s1 (stereo not given) | 4.5 | -1.3 | 4.9 | 9.6 | 3.2 | -0.8% | -6.3%
O=C(CSCc1ccc(Br)cc1)NCc1ccccn1 | 4.5 | 4.7 | -3.2 | 18.8 | 0.6 | -1.3% | -5.5%
COc1ccc(S(=O)(=O)Cc2ccc(C(=O)NCCCN3CCc4ccccc4C3)o2)cc1 | -1.0 | -3.3 | -10.3 | 4.2 | 2.7 | 0.0% | -4.1%
CC(CN1CCCCC1)OC(=O)COc1ccc(Cl)cc1 (stereo not given) | 10.4 | 0.7 | -11.4 | ? | 2.6 | 1.3% | 7.8%
CC(NC(=O)c1ccc2ccccc2n1)c1ccc(S(N)(=O)=O)cc1 (stereo not given) | -5.2 | -1.1 | -2.2 | -20.0 | 1.0 | 1.0% | -1.0%
CCOC(=O)c1sc(NC(=O)CSc2nc(-c3ccco3)cc(C(F)(F)F)n2)c(C(=O)OCC)c1C | 1.2 | -2.4 | -10.0 | · | 1.8 | -0.6% | ·
COc1cccc(NC(=S)N2CCN(S(=O)(=O)c3ccc(F)cc3)CC2)c1 | 0.9 | 0.3 | -5.0 | 2.3 | -0.7 | 0.4% | 4.2%
O=C(O)CC/C(=N\Nc1ccc([N+](=O)[O-])cc1)c1ccccc1 | 4.8 | 0.7 | -26.5 | 11.8 | -8.7 | 1.5% | 7.3%
O=[N+]([O-])c1cc(-c2csc(NCCc3nc4cc(Cl)c(Cl)cc4n3CCCO)n2)ccc1Cl | -14.1 | 1.7 | -6.3 | · | -11.5 | 2.3% | ·
COc1ccc2c(c1)CCCN2S(=O)(=O)c1ccc(Cl)cc1 | 37.9 | -2.4 | -0.5 | -18.7 | 11.1 | 3.0% | -17.1%
CCn1ncc(NC(=S)Nc2ccc3c(c2)OCO3)c1C(N)=O | -0.7 | -2.2 | -7.1 | 3.3 | 6.5 | -1.0% | 56.2µM*

5 compounds already listed, sorted by heavy-atom count, low to high:
SMILES | CtBP-E1A blk | D2 agonist | D2 potentiator | TRPV1 potentiator | Six1-Eya2 blk | PINK1 modulator | Sfp inh
COc1ccc(C(=O)OCn2nnc3ccccc3c2=O)cc1 | 15.3 | 2.5 | 9.2 | -22.4 | -4.5 | 3.0% | -0.9%
COc1cc(-c2ccc(NC(C)=O)c(OC)c2)ccc1NC(C)=O | · | -3.7 | -11.9 | 7.2 | -3.1 | 2.8% | 11.7%
COc1cc(NC(=O)Cn2cnc3ccccc3c2=O)c(OC)cc1Cl | 4.8 | 0.9 | -3.2 | 12.7 | -1.9 | 0.4% | 3.0%
CCOc1ccc2nc(NC(=O)C(NS(=O)(=O)c3cccc4nsnc34)C(C)C)sc2c1 (stereo not given) | 1.7 | -3.7 | -2.3 | · | -14.4 | 3.4% | 5.6%
COc1ccc(S(=O)(=O)Cc2ccc(C(=O)NCCCN3CCc4ccccc4C3)o2)cc1 | -1.0 | -3.3 | -10.3 | 4.2 | 2.7 | 0.0% | -4.1%

The list continues:
SMILES | CtBP-E1A blk | D2 agonist | D2 potentiator | TRPV1 potentiator | Six1-Eya2 blk | PINK1 modulator | Sfp inh
COc1ccc(N=CC2=C(O)CCCC2=O)cc1 | 2.8 | 0.1 | -1.6 | -9.2 | 0.3 | -0.4% | 8.5%
CCCN(CC(=O)Nc1ccccc1C)C(=O)c1ccc(-c2ccccc2)cc1 | -6.3 | -3.0 | 2.4 | -11.4 | -5.3 | 2.6% | -3.4%
COc1ccccc1C(=O)N1CCN(Cc2nc3cc([N+](=O)[O-])ccc3n2C)CC1 | 11.3 | -4.4 | -9.9 | 22.9 | 2.9 | 3.3% | -13.0%
Cc1nn(Cc2noc(C(=O)NCCCn3ccnc3)n2)c(C)c1Br | -0.5 | 6.2 | -2.3 | -9.9 | -1.5 | -0.9% | 2.7%
COc1ccc(Cc2nnc(Cl)c3ccccc23)cc1OC | · | -2.7 | 0.5 | -0.9 | -0.5 | 2.3% | 7.7%
Cn1cc(Cl)c(-c2n[nH]c(=S)n2-c2ccccc2)n1 | -0.8 | 1.5 | 8.4 | 0.0 | -4.3 | -0.4% | -8.0%
Cc1ccccc1Nc1nc(N)nc(COC(=O)CC2CC3CCC2C3)n1 (stereo not given) | 0.5 | -2.1 | -11.6 | 4.6 | -7.1 | 1.9% | 6.1%
O=C(CN1C(=O)C2CC=CCC2C1=O)Nc1ccc(F)cc1F (stereo not given) | -11.6 | 0.7 | -1.3 | -0.8 | 5.8 | 2.2% | ·
CCN(Cc1cc(=O)n2cc(Cl)c(C)c(Cl)c2n1)Cc1nc2ccccc2c(=O)[nH]1 | -2.1 | -1.0 | -9.5 | -2.2 | -8.6 | 0.0% | -7.7%
CCOC(=O)c1c(SC)nc(SC)c2c1CCC2 | 1.2 | -2.4 | -11.2 | 8.8 | 0.0 | -0.3% | -1.7%
OCCCc1n[nH]c(=S)n1-c1ccccc1 | 4.2 | -2.4 | -4.2 | 3.8 | -2.0 | 2.6% | -1.0%
CN1CCN(C(=O)Nc2ccc([N+](=O)[O-])cc2)CC1 | -2.9 | -4.0 | -14.4 | -0.2 | 3.9 | -0.2% | 10.0%
COc1ccc(OC)c(C(=O)CSc2nc3c(c(=O)n(C)c(=O)n3C)n2C(C)C)c1 | 7.2 | 1.0 | 8.6 | -1.3 | -1.4 | 4.2%[38.3 µM] | 14.2%
Cc1nc2nc(SCc3nc4ccccc4[nH]3)[nH]c2cc1Br | -16.5 | 6.8 | -1.1 | 3.6 | 3.9 | 10.5% | 7.8%
O=C(OCc1ccc([N+](=O)[O-])cc1)C1CC(=O)N(Cc2ccccc2Cl)C1 (stereo not given) | -0.8 | -5.3 | -6.7 | -0.3 | 12.5 | -1.3% | -12.4%
